# CtBP-E1A inh = inhibitors of CtBP/E1A interaction; 0.49% of 340,000 active; AlphaScreen GST-E1A/His-CtBP binding, 1536-well; hits give low values; control for the full effect not named in the record; AID 651724; activity change, % (no concentration beside the values); in the data active means activity change below about -65%; inconclusive means about -30% to -65%; inactive means above about -30%; also: % is scaled to controls: 0 for no effect and ±100 for the full control effect; compound concentration not given in the record
#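 In 5 uL wells, 23 nL compound meets equimolar GST-E1A and His-CtBP (5X stock 125 nM each) for 2 h, 37 °C. Beads (5X, 50 ug/mL) then 1 h, 37 °C, dark.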
# D2 potentiator = potentiates the human D2 dopamine receptor allosterically; potentiation, % (no concentration beside the values); DiscoveRx D2 beta-arrestin cells, luminescence, 90 min; 100% = 57 uM dopamine signal; AID 624464; P14416; 0.23% of 360,000 active; active = potentiation of 50% or more; inconclusive = 30% to 50%; inactive = 30% or less;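 also: compound concentration not given in the record; tested on top of an EC20 dose of dopamine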
# Target sequence (P14416 whole entry, looked up): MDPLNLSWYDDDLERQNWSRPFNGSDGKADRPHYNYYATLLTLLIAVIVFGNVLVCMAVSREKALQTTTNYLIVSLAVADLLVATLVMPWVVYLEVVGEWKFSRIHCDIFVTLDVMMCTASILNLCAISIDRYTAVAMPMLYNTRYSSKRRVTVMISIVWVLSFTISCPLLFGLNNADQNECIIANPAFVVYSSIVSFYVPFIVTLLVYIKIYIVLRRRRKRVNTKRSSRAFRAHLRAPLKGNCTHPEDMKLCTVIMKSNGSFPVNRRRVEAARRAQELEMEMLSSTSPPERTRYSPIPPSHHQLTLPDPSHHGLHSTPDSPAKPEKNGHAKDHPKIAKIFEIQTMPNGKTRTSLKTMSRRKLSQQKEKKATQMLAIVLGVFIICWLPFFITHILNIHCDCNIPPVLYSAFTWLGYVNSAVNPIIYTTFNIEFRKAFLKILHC
#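 D2 cells co-treated with compound plus 50 nM dopamine (EC20) for 90 min at 37 deg C to detect potentiation. Beta-arrestin recruitment was read as enzyme-fragment luminescence after 1 h at ambient temperature. Full response was set by 57 uM dopamine.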
# Six1-Eya2 blk = inhibitors of human Six1/Eya2 interaction; Q15475+O00167; AlphaScreen GST-Six1/His-Eya2 binding, biochemical; hits give low values; control for the full effect not named in the record; activity change, % (test concentration not listed); 0.56% of 360,000 active; AID 651725; in the data active = activity change below about -65%; inconclusive = about -30% to -65%; inactive = above about -30%; also: % is scaled to controls: 0 for no effect and ±100 for the full control effect; compound concentration not given in the record
#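 AlphaScreen luminescence read after one hour at 37 °C in darkness. Pin-transferred compounds met GST-Six1 and His-Eya2 protein (5X stock 250 nM/500 nM) plus glutathione donor and Ni-chelate acceptor beads (5X, 50 ug/mL).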
# TRPML1 agonist = human mucolipin-1 channel agonism. activation, % (no concentration beside the values). AID 624414. Q9GZU1. TRPML1-expressing cells, Ca2+ dye fluorescence, FDSS; host cell line not named in the record; reference of the full effect not given here. 0.12% of 410,000 active; in the data active = activation above about 50%; inconclusive = about 30% to 50%; inactive = below about 30%; also: 0% is about no effect; the text of the record puts the active cut at 80%
# Target sequence (Q9GZU1 whole entry, looked up): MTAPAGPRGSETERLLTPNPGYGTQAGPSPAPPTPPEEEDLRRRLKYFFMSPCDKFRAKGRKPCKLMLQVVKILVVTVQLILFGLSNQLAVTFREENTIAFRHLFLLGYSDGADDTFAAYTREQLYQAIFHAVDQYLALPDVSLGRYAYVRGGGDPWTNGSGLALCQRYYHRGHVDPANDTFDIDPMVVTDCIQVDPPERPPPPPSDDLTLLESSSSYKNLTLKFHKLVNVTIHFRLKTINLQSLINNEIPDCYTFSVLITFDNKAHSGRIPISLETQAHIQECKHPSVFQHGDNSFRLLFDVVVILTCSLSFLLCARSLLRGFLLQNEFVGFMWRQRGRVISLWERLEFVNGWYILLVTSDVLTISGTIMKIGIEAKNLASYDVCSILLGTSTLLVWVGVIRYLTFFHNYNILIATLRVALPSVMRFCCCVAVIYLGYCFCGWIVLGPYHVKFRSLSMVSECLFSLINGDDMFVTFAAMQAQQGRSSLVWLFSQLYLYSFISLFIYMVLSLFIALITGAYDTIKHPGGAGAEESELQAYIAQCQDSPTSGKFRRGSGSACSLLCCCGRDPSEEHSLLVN
#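 TRPML1-DL cells, Tet-induced overnight (~16 h, 37 degrees C), loaded 45-90 min at room temperature with Ca8 no-wash calcium dye plus quencher. FDSS fluorescence: 10 s baseline, compound pin-transfer, 110 s agonist read, then EC80 54-4 (4uM final) and 110 s antagonist read.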
# D2 agonist = human D2 receptor agonism in beta-arrestin assay; P14416; DiscoveRx PathHunter D2 beta-arrestin, luminescence, 90 min; 100% = 57 uM dopamine signal; activation, % (concentration not given with the values); 0.084% of 360,000 active; AID 624465; in the data active = activation above about 40%; inconclusive = about 15% to 40%; inactive = below about 15%; also: compound concentration not given in the record; the text of the record calls up to 30% inactive
#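 Agonist mode: compounds alone added to overnight-plated D2 PathHunter cells for 90 min at 37 C, with 57 uM final dopamine (EC100) defining full response. Beta-arrestin recruitment detected by chemiluminescent reagent, read after 1 h at ambient temperature.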
# PINK1 modulator = PINK1 expression modulation | PINK1 immunofluorescence, high-content cytometry, 24 h | Potency, µM (titrated, usually from 76.6 µM), for inactives: at the top dose activation (PINK1 increase), hits mostly activators | 0.2% of 410,000 active | AID 624263; active = well fitted activation curve with a large enough effect; inconclusive = small, poorly fitted or top-dose-only effect; inactive = flat fitted curve, though single readings scatter; cell line not stated here;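 also: potency is read from the fitted curve at half-maximal effect; % of control where 0% means no effect; nearly all actives have a fitted effect of over 65% in size; a mitochondrial uncoupler was the plate control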
#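 Cells are seeded, rested 12 hours, then given compound at five concentrations or DMSO for 24 hours. After fixation, blocking and antibody staining, PINK1 amount and mitochondrial localization are scored; CCCP serves as control.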
# The depositor's hits bear a star; ? = inconclusive; . = not tested or not shown; [ ] = dose if it differs, or a comment.
# Every second line gives: CtBP-E1A inh, D2 potentiator, Six1-Eya2 blk, TRPML1 agonist, D2 agonist, PINK1 modulator
CCOC(=O)N1CCN(S(=O)(=O)c2ccc(C(=O)N(CCN(C)C)c3nc4c(C)cccc4s3)cc2)CC1
 : 0, -17, -8, -0.4, -1.0, -0.8%
O=C(N/N=C/c1cccc(C(F)(F)F)c1)c1ccc(O)cc1
 : 0, 4, -8, -0.1, -1.1, -0.1%
CC(=O)N(C)c1ccc(NCc2cc(=O)oc3cc(C)c(O)cc23)cc1
 : ., -1, 0, 1.0, -4.8, 1.0%
CCCCC(=O)Nc1cccc(-c2ccc3nncn3n2)c1
 : ., -8, -3, 0.8, 2.4, 1.5%
O=C(Cc1ccccc1)N/N=C/c1ccc[nH]1
 : 6, -5, 2, 0.8, 0.9, 2.1%
N#CC1=C(N)N(c2ccc(Br)cc2)C2=C(C(=O)CCC2)C1c1cccnc1 (stereo not given)
 : 29, 11, 12, -0.5, 0.3, 58%[38.3 µM]
NC(=O)CC(NC(=O)Cc1cccc2ccccc12)c1ccc(NCc2cc(F)ccc2F)c([N+](=O)[O-])c1 (stereo not given)
 : ., -9, 2, 0.0, -2.1, 4.4%
Cc1ccc2c(CN3C(=O)NC(C)(c4ccc5c(c4)OCO5)C3=O)cc(=O)oc2c1 (stereo not given)
 : -3, -12, -10, 2.1, -2.8, 13%[38.3 µM]
CSCCC(N=C(NS(=O)(=O)c1ccc(C)cc1)c1ccccc1)C(=O)O (stereo not given)
 : 7, -5, 1, 0.6, -1.7, -0.3%
CCc1cccc(CC)c1NC(=O)COC(=O)C1(c2ccc(Cl)cc2)CCCC1
 : -2, -29, -1, 1.3, -3.2, 7.1%

# The list continues:
# Every second line gives: CtBP-E1A inh, D2 potentiator, Six1-Eya2 blk, TRPML1 agonist, D2 agonist, PINK1 modulator
NC(=O)c1c(NC(=O)c2ccccc2)sc2c1CCc1ccccc1-2
 : 5, 1, 5, 1.7, -2.3, 8.1%[38.3 µM]
COCc1nnc(NC(=O)c2ccc3c(c2)OCO3)s1
 : 3, 0, 2, 0.5, -0.4, -0.4%
CC(C)C[C@H]1CN([C@@H](Cc2ccc(O)cc2)CN2CCC[C@@H]2CN2C(=O)C(=O)NC[C@@H]2Cc2ccccc2)C(=O)C(=O)N1CC1CCCCCC1
 : -9, 0, -9, 0.4, -0.7, 1.7%
COc1ccc2c(ccc[n+]2CC(=O)c2ccccc2)c1
 : 9, -1, 2, -0.2, -0.1, 1.0%
COc1ccc(Cn2nnnc2CN2CCC(c3nc4ccccc4s3)CC2)cc1
 : -16, -12, -8, 4.5, 0.3, -6.4%[38.3 µM]
C/C(=N\NC(=O)c1ccncc1)c1ccc(N2CCOCC2)cc1
 : 0, -9, -2, -0.3, -1.6, -0.2%
COc1ccc(OC)c(-c2cc(C(=O)N/N=C/c3cc(OC)c(OC)cc3OC)c3ccccc3n2)c1
 : -14, -1, 19, 0.5, 6.4, 1.3%
COc1ccc(-c2nc3ccccn3c2/N=C/c2ccc(OC)c(OC)c2)cc1O
 : 3, 28, -1, -0.2, 5.7, 0.5%
COC(=O)C1(C)CC1(c1ccccc1)c1ccccc1 (stereo not given)
 : ., -3, 3, 2.4, -3.5, 9.1%
CCOC(=O)c1c(-c2ccccc2)csc1NC(=O)CCN1CCOCC1
 : 11, -22, -1, 3.3, -1.2, 3.1%

# 2 of the compounds above, field by field.
Molecule: NC(=O)c1c(NC(=O)c2ccccc2)sc2c1CCc1ccccc1-2
  CtBP-E1A inh: 5 | D2 potentiator: 1 | Six1-Eya2 blk: 5 | TRPML1 agonist: 1.7 | D2 agonist: -2.3 | PINK1 modulator: 8.1%[38.3 µM]

Molecule: COCc1nnc(NC(=O)c2ccc3c(c2)OCO3)s1
  CtBP-E1A inh: 3 | D2 potentiator: 0 | Six1-Eya2 blk: 2 | TRPML1 agonist: 0.5 | D2 agonist: -0.4 | PINK1 modulator: -0.4%

# Continued.
# Every second line gives: CtBP-E1A inh, D2 potentiator, Six1-Eya2 blk, TRPML1 agonist, D2 agonist, PINK1 modulator
Cc1c(NC(=O)Nc2ccc(Cl)cc2)c(=O)n(-c2ccccc2)n1C
 : 1, -5, 5, -0.1, -1.7, ?
CC(Oc1cccc(Cl)c1)C(=O)NCc1ccc(S(N)(=O)=O)cc1 (stereo not given)
 : ., -9, 3, -0.3, 0.6, -1.2%
CN(C)c1ccc(NC(=O)c2ccc3nsnc3c2)cc1
 : -17, -12, -13, 0.6, 0.8, ?
CCOC(=O)CNCCC(=O)c1ccc(Br)cc1
 : -4, -36, 1, 0.0, -1.4, 2.3%
COc1ccc(C(=O)NCC(=O)N/N=C/c2cccc(OC(=O)c3ccco3)c2)cc1OC
 : 8, -3, 1, -0.5, -4.8, 6.4%
COc1ccc(-c2ccc(C(=O)NCCc3ccccc3)c3occc23)c(C)c1
 : 7, -4, 2, 2.7, -1.4, 4.3%
O=C1CC(c2ccncc2)c2cc3c(cc2N1)OCO3 (stereo not given)
 : 3, 5, -25, 0.1, -3.9, 0.0%
N#Cc1ccc(COC(=O)CN2C(=O)NC3(CCCC3)C2=O)cc1
 : 2, -7, 9, 0.6, 0.6, 0.9%
O=C(c1cccc(C(F)(F)F)c1)C1CCCN(Cc2ccc(OCCO)cc2)C1 (stereo not given)
 : 17, -19, 1, 0.8, -1.5, -0.8%
Cc1cc(Br)ccc1NC(=O)CN1CCN(c2ccccn2)CC1
 : ., -10, -10, 0.9, 2.4, -0.2%

# Quoted at random: 3 records from the list, in no set order.
# Every second line gives: CtBP-E1A inh, D2 potentiator, Six1-Eya2 blk, TRPML1 agonist, D2 agonist, PINK1 modulator
CCOC(=O)CNCCC(=O)c1ccc(Br)cc1
 : -4, -36, 1, 0.0, -1.4, 2.3%
COc1ccc(-c2ccc(C(=O)NCCc3ccccc3)c3occc23)c(C)c1
 : 7, -4, 2, 2.7, -1.4, 4.3%
Cc1cc(Br)ccc1NC(=O)CN1CCN(c2ccccn2)CC1
 : ., -10, -10, 0.9, 2.4, -0.2%

# More records.
SMILES,CtBP-E1A inh,D2 potentiator,Six1-Eya2 blk,TRPML1 agonist,D2 agonist,PINK1 modulator
O=C(O)c1cc(OCc2ccccc2)cc(OCc2ccccc2)c1,7,2,6,-0.5,-1.2,0.2%
O=C(COC(=O)CNC(=O)c1ccc(Br)o1)Nc1ccccc1OC(F)F,.,-6,5,0.5,-0.4,0.4%
C=CCNC(=S)N1CCC2CC1c1c(Cl)cccc12 (stereo not given),1,-2,0,-0.3,-9.2,1.3%
O=C(COC(=O)c1cccc(OC(F)F)c1)Nc1cccc(S(=O)(=O)N2CCCC2)c1,-7,0,-4,4.3,4.9,0.1%
Cc1ccc([C@@H]2CC(=O)[C@@H]3CN(S(=O)(=O)c4ccc(C)cc4)[C@H](c4ccccc4F)C[C@@H]3N2S(=O)(=O)c2ccc(C)cc2)cc1,-27,-4,2,0.1,-4.2,0.5%
COc1ccc(CCC(=O)Nc2ccc3c(c2)OCCO3)cc1,0,9,-1,3.8,-0.5,-1.7%
CC1=C(C(=O)N2CCCCCC2)CC(CC(=O)NC2CCCC2)C(=O)N1Cc1ccc(F)cc1 (stereo not given),1,.,3,-0.4,.,-0.3%
CN(C)c1ccc(CNc2ncnc3sccc23)cc1,-12,-6,-9,0.2,2.8,2.1%
CCOC(=O)c1ccc(S(=O)(=O)NNC(=O)COc2ccc(C)cc2)cc1,1,-17,-7,-0.7,-0.8,1.2%
Cc1cn(C(C)C)c(=O)n(-c2ccccc2)c1=O,1,0,5,0.1,1.0,-2.3%
Cc1ccc(-c2nnc3n2N=C(c2ccccc2Br)CS3)cc1,-3,-9,-19,0.8,-3.0,-2.4%
CC(C)(C)OC(=O)N1CCCN(C(=O)Nc2cccc(Cl)c2)CC1,-1,-27,13,0.4,-5.0,0.3%
O=[N+]([O-])c1cccc2ccc(N3CCOCC3)nc12,-9,-9,1,-0.2,-4.7,-0.8%
CC(C)(C)c1ccc(S(=O)(=O)N2CCCCC2C(=O)NCc2ccccn2)cc1 (stereo not given),-5,-4,-5,0.7,1.7,1.3%
NC(Cc1ccc(C(F)(F)F)cc1)c1csc(Nc2ccc(C(=O)NCCCO)cn2)n1 (stereo not given),?,-11,?,2.8,3.1,-0.1%
COc1cc(NC(=O)Cn2cnc(S(=O)(=O)N3CCOCC3)c2)cc(OC)c1OC,-21,-28,-15,-0.2,-2.5,-0.6%
Cc1cc(C)cc(NC(=O)c2ccc(NC(=O)C3C4CC5OC(=O)C3C5C4)cc2)c1 (stereo not given),-3,-3,-9,-0.4,-1.7,3.8%
CC1=NN(Cc2c(C)nn(Cc3ccccc3)c2C)C(C)(C)C1,1,-3,-6,-0.3,-2.5,0.2%
CN1CCN(C2CCCCCC2)CC1,9,-14,6,1.2,-1.2,-1.3%[38.3 µM]
CCN(CC)CCNC(=O)c1ccc(NC(=O)c2ccc(Cl)c(S(=O)(=O)N3CCCCCC3)c2)cc1,-12,-10,0,0.2,-0.7,-2.8%

# (next part)
SMILES,CtBP-E1A inh,D2 potentiator,Six1-Eya2 blk,TRPML1 agonist,D2 agonist,PINK1 modulator
COc1ccc(NC(=O)c2cccc3c(Br)cccc23)cc1,.,8,0,.,3.7,11%
CC(C(=O)N1CCc2ccccc21)n1cnc2c1c(=O)n(C)c(=O)n2C (stereo not given),-2,-12,-2,0.1,-1.9,-0.7%
COC(=O)[C@@]12CCCN1[C@H](c1ccc(-c3ccc(Cl)c(Cl)c3)c(OC)c1)[C@H]1C(=O)N(C)C(=O)[C@H]12,.,-12,-18,-0.1,0.7,4.1%
CSc1ccc(S(=O)(=O)NCC(=O)OCC(=O)N(C)CC(=O)Nc2ccccc2Cl)cc1[N+](=O)[O-],0,-9,-5,-0.7,-4.0,-0.2%
CC1c2cc3c(cc2CCN1C(=O)c1ccc(Cl)cc1)OCCCO3 (stereo not given),-17,-9,-10,3.6,-1.9,0.6%
Cc1sc2ncnc(OCC(=O)N3CCN(S(=O)(=O)c4ccccc4)CC3)c2c1C,-2,0,6,-1.4,2.0,-1.0%
CC1CCc2ccccc2N1C(=O)c1cccs1 (stereo not given),5,6,3,-0.7,-4.7,0.1%
COc1cc(/C=C/C(=O)OCC(=O)c2c(N)n(C)c(=O)n(C)c2=O)ccc1OC(F)F,?,5,-1,0.9,-4.5,3.5%
CCOc1ccc(N(CC(=O)NCCc2ccc(C)cc2)S(=O)(=O)c2c(C)noc2C)cc1,4,-11,-3,-0.8,-0.3,3.9%
CCC(=O)Nc1cccc(-c2ccc(N3CCCCC3)nn2)c1,.,-1,-1,0.1,-7.7,-0.3%
CC(C)C(OC(=O)c1nsc(Cl)c1Cl)C(=O)NC1CCCCC1 (stereo not given),-2,-5,5,-0.1,1.7,2.9%
Cc1nnc(SCC(=O)c2c(N)n(C3CC3)c(=O)[nH]c2=O)n1-c1ccccc1,4,-4,2,0.5,-3.8,2.5%
COc1cc(OC)c(OC)cc1CN1CCN(S(=O)(=O)c2ccc(F)cc2)CC1,2,-13,-9,-0.1,-1.0,-4.8%
Cc1ccccc1C(=O)NCC(C)NC(=O)c1ccccc1C (stereo not given),1,-4,8,-0.4,-1.0,0.8%

# Rows are unselected; 1.3% or so of the library scored in one or more.
